AmpC inh no det: inhibitors of E. coli AmpC beta-lactamase without detergent; P00811; AmpC nitrocefin hydrolysis, absorbance 480 nm, no detergent; potencies from a single point are estimates; 71,000 compounds, 1.8% hits; Potency, µM (highest dose often 28.7 µM), for inactives: top-dose activity change, negative = inhibition; active = falling curve, for most hits resting on a single point; inconclusive = weak or doubtful change; inactive = flat or rising curve; note: % of control where 0% means no effect; about half of the hits show no inhibition at the top dose; a quarter of the inactives give rising signals
Target sequence (P00811 whole entry, looked up): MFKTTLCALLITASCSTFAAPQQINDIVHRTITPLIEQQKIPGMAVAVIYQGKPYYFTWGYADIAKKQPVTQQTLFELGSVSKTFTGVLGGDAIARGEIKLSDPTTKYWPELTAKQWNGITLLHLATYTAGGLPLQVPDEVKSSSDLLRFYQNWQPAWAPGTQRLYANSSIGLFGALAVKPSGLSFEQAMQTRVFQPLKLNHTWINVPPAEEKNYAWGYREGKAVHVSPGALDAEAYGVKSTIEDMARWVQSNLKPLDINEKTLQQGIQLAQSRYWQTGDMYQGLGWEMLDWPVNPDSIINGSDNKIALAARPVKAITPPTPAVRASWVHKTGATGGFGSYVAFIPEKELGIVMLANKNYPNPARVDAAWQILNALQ
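Enzyme, pH 7.0 phosphate. Compound titrations were pre-incubated with AmpC for 15 min at room temperature before nitrocefin (stock 800 uM) addition; product formation was recorded at 480 nm every 20 s for 4 min.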
Numbers without * were called inactive; u = inconclusive; & = joins results of further samples; [ ] = another dose, or the depositor's remark. Potency is the fitted concentration of half-maximal effect.

SMILES	AmpC inh no det
CCCCc1ccc(Nc2ncnc3nc[nH]c23)cc1	95.9%
O=C(O)[C@H]1CCCC[C@@H]1C(=O)Nc1nc2ccccc2[nH]1	2.5%[5.75 µM]
Cc1cccc(-c2nnc(-c3ccc(N)cc3)o2)c1	10.2%
CN1C(=O)COc2c(C(=O)N[C@@H]3CN4CCC3CC4)cc(Cl)cc21	20.4%
O=C(Oc1cc(=O)oc2ccccc12)c1ccco1	-7.6%
COC(=O)NCCOc1cc(C)ccc1C	10.4%
CCSc1ncc(Cl)c(C(=O)Nc2ccc(S(=O)(=O)Nc3onc(C)c3C)cc2)n1	-17.6%
O=C(C1CCN(S(=O)(=O)N2CCOCC2)CC1)N1CCC2(CC1)OCCO2	-9.0%
CCN(CC)C(=O)CN(C#N)c1nc(OC)nc(N(C)C)n1	5.4%
O=C1c2ccccc2C(=O)N1Cc1nc2ccccc2c(=O)n1CCN1CCOCC1	95.5%
Cc1ccc(-c2cc(C(=O)NCC3CCCO3)no2)cc1 (stereo not drawn)	6.2%
COC(=O)C1=C(C)NC2=C(C(=O)CCC2)C1c1coc2ccccc2c1=O (stereo not drawn)	16.2%
Cc1cc(C)nc(SC2=CS(=O)(=O)c3ccccc32)n1	7.6%
COc1ccc(NS(=O)(=O)c2ccc3c(c2)oc(=O)n3C)c(OC)c1	5.8%
Cn1cc(C(=O)N2CCC3(CC2)OCCO3)c2c3ccccc3n(C)c2c1=O	26.9%
CCc1ccc(OCC(=O)N(C)C2CCS(=O)(=O)C2)cc1 (stereo not drawn)	2.7%
Cc1c(C(=O)NCc2ccco2)sc2nc(-c3ccccc3)cn12	37.9%
O=C(O)C1Nc2c(O)cccc2C2C=CCC12 (stereo not drawn)	u
COc1cccc(C(CC(=O)NCC2CCCO2)NS(=O)(=O)c2ccc(C)cc2)c1OC (stereo not drawn)	15.1%
CC1CCCC(C)N1CCNC(=O)Cn1nc(-c2ccccc2)ccc1=O (stereo not drawn)	-3.6%
O=C(Cc1cccs1)Nc1ccc2c(c1)C(=O)OC2	-9.5%
CCOC(=O)c1c(-c2ccccc2)c(C(C)=O)c(=O)n(C)c1C	3.98µM*[single pt active]
CCn1nnnc1-c1ccc(OC)c(S(=O)(=O)N2CCCCC2)c1	-0.2%
c1cc(CSSCc2ccncc2)ccn1	-6.1%[5.75 µM]
CCN(Cc1cc2ccc(C)cc2[nH]c1=O)C(=O)c1ccncc1	-5.4%
CCOC(=O)C1CCCN(S(=O)(=O)c2ccc(Br)c(OC)c2)C1 (stereo not drawn)	20.2%
Cc1ccc(S(=O)(=O)NC(CN2CCOCC2)=NCCNS(=O)(=O)c2ccccc2)cc1	65.1%
CS(=O)(=O)NCCCc1ccccc1	-3.2%
COc1ccc(Cn2nnnc2C(c2ccccc2Cl)N2CCN(C)CC2)cc1 (stereo not drawn)	36.7%
COc1ccc(Cl)cc1S(=O)(=O)N1CCN(C(=O)c2ccco2)CC1	51.2%
COc1c2ccoc2cc2oc(=O)ccc12	1.9%&1.2%
Cc1cccc2cc(COC(=O)c3ccco3)c(=O)[nH]c12	-1.7%
C[n+]1ccc(-c2ccncc2)cc1	4.4%
O=C1CSC2N1CCNC21CCCCC1 (stereo not drawn)	-3.6%
O=C(Nc1cccc(F)c1)N1CCC2(CC1)CCN(C(=O)c1ccncc1)CC2	58.4%
COc1cccc(Cn2c(=O)c(-c3cccc(C#N)c3)nc3cnc(N4CCN(C)CC4)nc32)c1	127.9%

Next section; the last 6 above are carried over.
SMILES	AmpC inh no det
COc1c2ccoc2cc2oc(=O)ccc12	1.9%&1.2%
Cc1cccc2cc(COC(=O)c3ccco3)c(=O)[nH]c12	-1.7%
C[n+]1ccc(-c2ccncc2)cc1	4.4%
O=C1CSC2N1CCNC21CCCCC1 (stereo not drawn)	-3.6%
O=C(Nc1cccc(F)c1)N1CCC2(CC1)CCN(C(=O)c1ccncc1)CC2	58.4%
COc1cccc(Cn2c(=O)c(-c3cccc(C#N)c3)nc3cnc(N4CCN(C)CC4)nc32)c1	127.9%
CCCOc1ccc(N2CC(C(=O)Nc3ccccc3C(=O)NCc3ccco3)CC2=O)cc1 (stereo not drawn)	49.9%
Nc1cc(C(=O)OCC(=O)NCc2ccco2)ccc1Cl	-3.5%
COc1cccc(N2C(=O)CC(=O)NC2=O)c1	-10.5%
c1ccc2c[n+](CCCC[n+]3ccc4ccccc4c3)ccc2c1	16.7%[5.75 µM]
COCCNC(=O)CN1CCN(C(c2ccccc2)c2ccccc2)CC1	70.0%
CCCc1cn(S(=O)(=O)c2ccc(OC)cc2OC)nc1N	-4.7%
COc1cccc(C2=CC(c3ccc(C)cc3)n3ncnc3N2)c1 (stereo not drawn)	20.2%
O=C(NCc1ccc2c(c1)OCO2)c1ccc2c(=O)n(C3CCCC3)c(=O)[nH]c2c1	7.94µM*
O=C(CCCCCNc1nc(=S)[nH]c2ccccc12)N1CCN(c2ccccn2)CC1	21.1%
CC(=O)N1CCC2(CCCN(C(c3ccccc3)c3ccccc3)C2)CC1	98.7%
CCOC(=O)N1CCN(c2c(NCCCOC(C)C)c(=O)c2=O)CC1	3.98µM*[single pt active]
Cc1ccc(C)c(NC(=O)C2CC(O)CN2C(=O)OCc2ccccc2)c1 (stereo not drawn)	44.8%
COc1ccc(C)cc1-n1nnnc1SCC(=O)NC(=O)NCc1ccco1	-3.3%
COc1ccccc1N(CN1CCCC1=O)C(=O)COc1ccccc1	21.2%
O=C(CSc1nc(-c2ccccc2)nc2c1CCCC2)N1CCOCC1	94.6%
Cc1ccc(CNc2nc3c([nH]2)c(=O)n(C)c(=O)n3C)cc1	3.1%
COc1ccc(C(C)=O)cc1COC(=O)c1cc(C)oc1C	57.8%
O=C(NCC(=O)N1CCC(N2CCCCC2)CC1)C1CCCCC1	-10.7%
O=S(=O)(NCCCCCNS(=O)(=O)c1ccc(F)cc1)c1ccc(F)cc1	-7.9%
O=C(c1cccc2c1C(=O)N(Cc1cccnc1)C2)N1CCN(c2ccccc2)CC1	35.9%
CCOc1ccc(NS(=O)(=O)c2ccc(OCC(=O)NCCCOC)cc2)cc1	37.5%
COc1ccc(C[C@H]2c3cc(OC)c(OC)cc3CCN2C)cc1OC	6.2%
CC(C)n1c(-c2cccnc2)nc2cnccc21	-15.5%
Clc1ccc(-c2nnc(-c3ccccc3)o2)c(Cl)c1	-6.8%
COC(=O)Nc1sccc1C(=O)Nc1sccc1C(=O)OC	18.9%
N[C@@H](Cc1c[nH]c2ccccc12)c1nnc(SCc2c(F)cccc2Cl)o1	73.9%
N#CC1=C(N)SC(N)=C(C#N)C1c1c(Cl)cccc1Cl	-21.3%
Cc1nn(-c2ccccc2)c(OC(=O)c2cccs2)c1S(=O)(=O)c1ccccc1	5.9%
Cc1oc2c(CN3CCOCC3)c(O)ccc2c(=O)c1-c1ccc(Br)cc1	32.9%
CC(C)Oc1cccc(-n2c(CCc3c[nH]c4ccc(Br)cc34)nc3ccccc3c2=O)c1	34.7%
C=CCNc1nc2c(c(=O)n(C)c(=O)n2C)n1CC	-0.7%
O=C(CN1CCSCC1)N1CCc2[nH]c3ccc(Br)cc3c2C1	101.1%
Cn1c(N2CCCC2)nc2c1c(=O)n(Cc1cccc(F)c1)c(=O)n2C	49.2%
COc1ccc(-c2nnc(SCC(=O)NC3CCCCC3)o2)cc1OC	24.2%
COCCOC(=O)C1=C(C)N=C2SCCC(=O)N2C1c1cccc(Br)c1 (stereo not drawn)	75.5%
Cc1ccc(-c2[nH]n3c(=O)c4c(nc3c2C)CCCC4)cc1	-12.7%
Cc1noc(C)c1S(=O)(=O)Nc1ccc(C(=O)NC2CCCCC2)cc1	-8.6%
CC[N+](C)(CC)CC(=O)Nc1c(C)cccc1C	36.4%
CC(C)OC(=O)Cc1ccccc1	-13.0%
COc1ccc(S(=O)(=O)N(C)CC(=O)Nc2ccccc2SC)cc1	13.8%
O=C(c1ccco1)N1c2ccccc2Sc2ccccc21	14.9%
O=C(CSc1nnc(-c2ccccc2)o1)c1ccc2c(c1)OCCO2	17.1%
CN(C(=O)CSc1nnc(-c2ccco2)o1)C1CCCCC1	-6.8%
COc1ccccc1CNc1ncnc2ccc(-c3ccc(N(C)C)cc3)cc12	27.6%
CCN1C(=O)/C(=C2\SC(=S)N(CC3CCCO3)C2=O)c2ccccc21 (stereo not drawn)	-1.8%
COc1cccc2cc(C(=O)C3=C(O)C(=O)N(CCN(C)C)C3c3ccc(F)cc3)oc12 (stereo not drawn)	58.2%
CC(C)(CO)NC(=O)CCCOc1ccc(Cl)cc1Cl	39.6%
N#Cc1c(SCC(N)=O)nsc1SCc1ccccc1Cl	9.6%

Pulled by compound from the list above, 5 records:
SMILES	AmpC inh no det
N#Cc1c(SCC(N)=O)nsc1SCc1ccccc1Cl	9.6%
CN(C(=O)CSc1nnc(-c2ccco2)o1)C1CCCCC1	-6.8%
O=C(CSc1nnc(-c2ccccc2)o1)c1ccc2c(c1)OCCO2	17.1%
CC[N+](C)(CC)CC(=O)Nc1c(C)cccc1C	36.4%
CC(C)(CO)NC(=O)CCCOc1ccc(Cl)cc1Cl	39.6%

Carrying on.
SMILES	AmpC inh no det
N=C(N)SCCc1ccncc1	1.9%[5.75 µM]
C=CCn1c(SCC(=O)N2CCOCC2)nc2sc3c(c2c1=O)CCCC3	112.9%
CC(C)Nc1nc(NC(C)C)nc(N(C)C#N)n1	-0.1%
CCOC(=O)CN1CC23C=CC(O2)C(C(=O)Nc2ccc4c(c2)OCO4)C3C1=O (stereo not drawn)	-7.1%
COc1cccc(N2CC(O)Cn3c2nc2c3c(=O)n(CCCc3ccccc3)c(=O)n2C)c1 (stereo not drawn)	61.0%
Clc1ccccc1COc1ccccc1-c1nnco1	17.8%
COc1ccc(N2CCN(c3ccc(NC(=O)c4ccc5c(c4)OCO5)cc3C#N)CC2)cc1	-22.1%
CN1CCc2c(sc3c2C(=O)NC(c2cn(Cc4ccccc4)c4ccccc24)N3)C1 (stereo not drawn)	114.3%
Cc1onc(-c2ccccc2Cl)c1C(=O)N(C)C1CCCCC1	54.4%
Cc1ccc(OCc2nc(C#N)c(NCc3ccco3)o2)cc1	1.5%
COC(=O)C1=C(N)OC2=C(C(=O)CCC2)C1c1cccs1 (stereo not drawn)	-3.0%
COc1cccc(C2N(c3ccc(Cl)cc3)C(=O)C3CCCN32)c1 (stereo not drawn)	69.6%
Cn1c2c(c(=O)n(C)c1=O)C(CC(=O)Nc1ccccc1)C(=O)N2 (stereo not drawn)	-5.8%
O=C(c1ccco1)N1CCC2(CC1)CN(c1ccc(-c3ccccc3)cc1)C2	54.3%
O=C(c1cccc(C(F)(F)F)c1)N1CCCC1	1.1%
COc1nc(-c2ccccc2)ccc1-c1noc(-c2ccc(F)cc2)n1	-24.7%
COc1ccc(OCCCC(=O)N2CCCc3ccccc32)cc1	31.5%
Cc1nc(N2CCN(S(=O)(=O)c3cccc4nonc34)CC2)c2c3c(sc2n1)CCCC3	55.2%
O=C1C(c2ccc(F)cc2)N(Cc2ccc3c(c2)OCO3)C(=O)CN1C1CCCC1 (stereo not drawn)	20.3%
O=C(NC1=NCCS1)c1ccc(OCC2CCCO2)cc1 (stereo not drawn)	-1.8%
COc1cc(OC)nc(NC2OC(=O)c3ccccc32)n1 (stereo not drawn)	4.4%
Cc1ccc(S(=O)(=O)NC(CC(=O)NCC2CCCO2)c2ccco2)cc1 (stereo not drawn)	7.9%
Cc1noc(C)c1CSc1nc2[nH]ncc2c(=O)n1-c1ccccc1	19.5%
Cc1ccc(C(=O)N2CCN(C(=O)c3ccc(C)c(C)c3)C(C)C2)cc1C (stereo not drawn)	112.1%
Cc1cc(Nc2ccccc2)nc(-c2ccccc2O)n1	2.6%
CCOC(=O)N1CCN(C(=O)c2ccc(S(=O)(=O)c3ccc(C)cc3)c(NC(C)=O)c2)CC1	45.4%
COc1ccc(C(=O)N2CCC3(CCCN(Cc4nccs4)C3)CC2)cc1	92.1%
COc1cc(S(=O)(=O)NCCN2CCOCC2)c(OC)cc1Cl	6.6%
CCOC(=O)c1sc2nc(N3CCCC3)c3c(c2c1N)CC(C)(C)OC3	31.1%
N[C@@H](C(=O)O)c1ccc(O)c(C(=O)O)c1	-11.3%
COc1ccc(/C(O)=C2/C(=O)C(=O)N(CC3CCCO3)C2c2cccc(OC)c2)cc1 (stereo not drawn)	2.4%
CCc1nnc(NC(=O)c2ccc(S(=O)(=O)N3CCN(Cc4ccccc4)CC3)cc2)s1	-20.9%
CS(=O)(=O)N1CCC2(CC1)CN(c1ccncc1)C2	-4.0%
CCCc1nc2scc(-c3ccccc3)c2c(=O)n1N	7.7%
CC(=O)c1ccc(N2CCN(C(=O)c3cc4c(=O)n(C)c5ccccc5c4n3C)CC2)cc1	2.7%
CCOC(=O)CS(=O)(=O)c1nc(-c2ccccc2)cc(C(F)(F)F)n1	-3.0%
O=c1[nH]c(=O)n(CCOc2ccc(Cl)cc2)cc1Br	-5.0%
Cc1cccc(-c2c3c(=O)n(C)c(=O)n(C)c3c3cccnn23)c1	67.1%
CCS(=O)(=O)N1CCN(CC2CC3C=CC2C3)CC1 (stereo not drawn)	5.3%
Cn1c(=O)n(CC(=O)N2CCC3(CC2)OCCO3)c(=O)c2ccccc21	-3.4%
O=C(CCCCCN1C(=O)c2ccccc2C1=O)NCc1ccco1	3.0%
Cc1cc(Cl)cc2c1NC(=O)[C@]21[C@@H]2C(=O)N(Cc3ccccc3)C(=O)[C@@H]2[C@@H]2CCCN21	78.0%
COc1ccc(N(CC(=O)N2CC=C(c3ccccc3)CC2)S(=O)(=O)c2c(C)noc2C)cc1	3.98µM*[single pt active]
COc1cc(C2C3=C(CC(C)(C)CC3=O)Nc3c2c(=O)[nH]c(=O)n3Cc2ccccc2)ccc1O (stereo not drawn)	4.1%&-6.7%
CCN1CCCC1CNC(=O)Cn1cccc1C(=O)c1ccccc1 (stereo not drawn)	-9.2%

High-throughput results (PubChem BioAssay)

These rows are one share of the data; rates above refer to the full screens.
